# Screens as filed in PubChem BioAssay.
# RmlC RmlD mix = inhibitors of RmlC and RmlD coupled enzymes | actives 0.39% (n = 110,000) | RmlC/RmlD coupled enzyme inhibition, 384-well mixture HTS | inhibition, % at 5.5 µM; in the data active means inhibition above about 30%, passing the limit was not always enough; only retested compounds are shown here; further: strong numbers were not always called active
# RmlC RmlD mix retest = second read-out of RmlC RmlD mix, no call of its own (marks repeat the call); inhibition, %; measured here: mean retest inhibition;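 single compounds in two wells; values far above 100% likely come from compound fluorescence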
# Active calls of the source: *; i = inactive; · = not tested or not shown; + = active, no number.
SMILES,RmlC RmlD mix,RmlC RmlD mix retest
COc1cc(-c2nc3cnccn3c2Nc2ccccc2)ccc1O,40*,34*
CCc1ccccc1OCC(=O)Nc1ccc(S(N)(=O)=O)cc1,50,2
O=C(CCCC1=NS(=O)(=O)c2ccccc2N1)N1CCN(c2ccccc2)CC1,62,-3
O=C(CCS(=O)(=O)c1cccc2nonc12)N1CCOCC1,144,-2
C/C(N)=C(/C#N)C(=O)CSc1nc2ccccc2[nH]1,120,-12
COc1ccccc1N1CCN(C(=O)COc2ccc(Cl)cc2Br)CC1,71,4
Cc1cccc(N2CCN(c3nc4ccccc4n4cnnc34)CC2)c1C,i,4
CCOc1ccc(Cl)cc1CN1CCOCC1,36,-8
Clc1ccc(OCCn2c(-c3ccco3)nc3ccccc32)cc1,125,-29
O=C1C2=C(Nc3ccccc3SC2c2ccco2)c2ccccc21 (stereo not given),59,0
COc1ccc(N2C(=O)CCC(C(=O)NCc3cccnc3)C2c2ccc(OC)c(OC)c2)cc1 (stereo not given),40,-3
c1ccc(-c2cn3nc4c(nc3n2)CCCC4)cc1,51,-27
COc1ccccc1C1C2CCCCC2(O)CCN1CC(=O)Nc1ccccc1 (stereo not given),107,3
O=C(Nc1ccon1)c1sc2cc(F)ccc2c1Cl,73,-1
O=C(NCc1cccs1)C1CC(=O)N(c2ccc(F)cc2)C1 (stereo not given),30,-18
COc1cccc(-n2nnnc2S(C)(=O)=O)c1,145,2
CCOC(=O)c1cnc2sc3c(n2c1=O)CCCC3,34,20
O=C(Nc1ccc(Br)cc1Cl)Nn1cnnc1,136,6
CC(=O)Oc1ccc(C(=O)Nc2ccc3c(c2)C(=O)N(CCC(=O)O)C3=O)cc1,130,-62
Cc1cc(OC(=O)CNC(=O)OC(C)(C)C)c2c(C)cc(=O)oc2c1,41,-2
CCCNC(=O)COC(=O)c1ccc(Cl)c(S(=O)(=O)N2CCCC2)c1,45,-5
Cc1ccc(S(=O)(=O)NCCC(=O)Nc2nnc(C3CC3)s2)cc1C,i,10
COC(=O)C(O)(CC(=O)Nc1ccc(OC(F)(F)F)cc1)C(F)(F)F (stereo not given),70,-15
O=C(Nc1ccccc1)NC1CS(=O)(=O)CC1O (stereo not given),36,-5
N#Cc1cccc(C(c2nnnn2C2CCCC2)N2CCC(Cc3ccccc3)CC2)c1 (stereo not given),42,3
# (list continues)
SMILES,RmlC RmlD mix,RmlC RmlD mix retest
Cc1ccc(S(=O)(=O)N2CCC(C(=O)NCc3ccncc3)CC2)cc1,85,-8
COP(=S)(OC)SCN1C(=O)c2ccccc2C1=O,57,-9
COc1ccc(-n2c(CSc3nc(C)cc(C)n3)nnc2SCC(=O)Nc2nccs2)cc1,52,-8
CC(N)Cc1c[nH]c2ccc(OCc3cccs3)cc12 (stereo not given),73,-11
CCC1CCCCN1C/C=C/c1ccccc1[N+](=O)[O-] (stereo not given),86,-9
CC(=O)Nc1ccc(S(=O)(=O)N2CCN(C(=O)c3ccccc3F)CC2)cc1,33,-10
C=CCn1c(O)c(C(C)=NCc2cccnc2)c(=O)[nH]c1=O,47,4
CCCCn1cc(C(=O)c2cc(Br)ccc2O)cc(C#N)c1=O,69,-7
COC(=O)NC1CSCC1OC(=O)c1ccc(Br)cc1 (stereo not given),81,-10
O=C(Nc1ccncc1)c1cccs1,43,2
COC(=O)c1c(NC(=O)c2nn(C)cc2Cl)sc2c1CCCC2,i,-5
COc1ccc(Cn2ccc(=O)c(Cc3c(Cl)cccc3Cl)c2C)cc1,32,-8
Cc1ccc(S(=O)(=O)C2(C(=O)Nc3cccnc3)CC2)cc1,61,-1
COc1ccc(CNC(=S)Nc2ccccc2C)cc1,67,1
Cc1ccc2nc3c(cc(C(=O)NCCCn4ccnc4)n3C)c(=O)n2c1,62*,·
O=C(Nc1ccc(N2CCOCC2)cc1)c1cccnc1,74,6
O=C1CC(N2CCN(c3ccccc3Cl)CC2)C(=O)N1c1cccc(F)c1 (stereo not given),39,-2
O=C(O)C(C(=O)/C=C/c1ccco1)=C1SCCS1,30,8
Cc1c(C(Nc2ccccn2)c2ccc(Cl)cc2)c(=O)n(-c2ccccc2)n1C (stereo not given),95,-6
CCn1cc(C(=O)N[C@H](C)c2ccccc2)c(=O)c2cc(F)c(N3CCN(C)CC3)cc21,38,4
O=C(CSc1ncccn1)NN=C1CCCCCCC1,51,-10
CCCn1c(=O)n(C)c(=O)c2c(SCc3cc(C(C)=O)ccc3OCC)nc(C3CC3)nc21,38,0
CCOC(=O)c1oc2nc(C)c3c(c2c1N)CC(C)(C)OC3,53,3
CCOC(=O)N1CCC(NC(=O)c2ccc3c(c2)N(C)CCS3)CC1,61*,57*
Cc1cc(C)nc(SCc2nnc(SCC(=O)Nc3ncc(C)s3)n2Cc2ccco2)n1,59,-1
# Next part.
SMILES,RmlC RmlD mix,RmlC RmlD mix retest
Cc1nc2cc(N3CCCCC3)c(NC(=O)c3cccnc3)cc2c(=O)n1Cc1ccccc1,50,-2
N#Cc1cc(S(=O)(=O)c2ccccc2)c(N)[nH]c1=O,48,-5
CCOC(=O)c1ccc(N2C(=O)CC(N3CCC(C#N)(c4ccccc4)CC3)C2=O)cc1 (stereo not given),32,-14
CN(C)c1oc(COc2ccccc2F)nc1C#N,37,-15
CCCCN1C(=O)C(CC(=O)NCC)SC1=Nc1ccccc1 (stereo not given),38,4
COCCNc1c2c(nc3c(-c4ccccc4)c(C)nn13)CCCC2,32,-2
Cn1nnnc1SCCNCC#Cc1ccccc1,62,1
CCCCn1cnc2c1c(=O)[nH]c(=O)n2CCCC,30,-4
CC(=O)n1cc(C2C(=O)CCCC2=O)c2ccccc21,34,-3
COC(=O)c1oc2ccc(Cl)cc2c1N,37,5
COc1ccc(CN2C3CCCC2CC(NC(=O)Nc2ccccc2)C3)cc1 (stereo not given),105,-4
O=C(c1ccc(Br)cc1)N1CCN(S(=O)(=O)c2ccccc2)CC1,69,4
COc1ccc(OC)c(-c2cc(C(=O)N3CCc4ccccc4C3)no2)c1,32,-29
Cc1nn2c(-c3ccco3)nnc2c2ccccc12,149,-5
CCCN1CCN(CCCNC(=O)C2CCCN(c3nnc(-n4cccc4)s3)C2)CC1 (stereo not given),30,-2
O=C(CC(Cc1ccccc1)c1ccco1)NC1CCCCC1 (stereo not given),i,-8
O=C(NC1CC2CCC(C1)N2Cc1ccco1)c1ccccc1 (stereo not given),44,-11
O=C(Cc1ccccc1)Nn1cnc2ccccc21,158,11
COc1cc(NC(=O)c2ccco2)c(C(=O)O)cc1OC,53,-3
COCCn1c(-c2ccc(OC)cc2)cnc1SCC(=O)Nc1cccc2ccccc12,82,4
CCOc1ccc(-n2c(N)c(-c3nc4ccccc4[nH]3)sc2=S)cc1,i,-2
O=C(NCCN1CCOCC1)c1cc2c(=O)n3ccccc3nc2n1Cc1ccccc1,86*,101*
CC1(C)C(=O)Nc2ccccc2N1C(=O)COC(=O)C1CCCCC1,30,-7
CSc1ccc(/C=N/n2nnnc2N)cc1,69*,109*
COc1ccccc1-n1cnc2cc(NC(=O)c3ccco3)ccc21,35,-4

# Given with values under each structure: 5 of the compounds above.
# The line under a structure holds: RmlC RmlD mix, RmlC RmlD mix retest
> CCOc1ccc(-n2c(N)c(-c3nc4ccccc4[nH]3)sc2=S)cc1
→ i, -2
> COc1ccccc1-n1cnc2cc(NC(=O)c3ccco3)ccc21
→ 35, -4
> COC(=O)c1oc2ccc(Cl)cc2c1N
→ 37, 5
> CC1(C)C(=O)Nc2ccccc2N1C(=O)COC(=O)C1CCCCC1
→ 30, -7
> CSc1ccc(/C=N/n2nnnc2N)cc1
→ 69*, 109*

# Going on with the list:
SMILES,RmlC RmlD mix,RmlC RmlD mix retest
CCCCOCCCn1c(N)c(C(=O)OC(C)COC)c2nc3ccccc3nc21 (stereo not given),30,28
O=C(Nc1cccc2cccnc12)c1ccc2c(c1)OCCO2,86,1
CCN=C1SC(C(=O)Nc2cccc(OCC)c2)CC(=O)N1CC (stereo not given),40,0
O=C(NCc1ccc(F)cc1)C1CCCN1C(=O)NCc1ccccc1 (stereo not given),44,4
Cc1cc(C(F)(F)F)nn1CC(=O)NCC1CCCO1 (stereo not given),32,-1
COc1ccc(CN2CC(C(=O)NCc3ccc4c(c3)OCO4)CC2=O)cc1 (stereo not given),36,3
COC(=O)c1cc(OC)c(OC)cc1NC(=O)Nc1ccccc1OC,60,40
C=C(C)COc1ccc2c3c(c(=O)oc2c1OCC(=C)C)CCC3,33,-20
CN1CC(c2ccccc2)C2(SC(=S)N(Cc3ccco3)C2=O)C12C(=O)Nc1ccccc12 (stereo not given),62,-10
Cc1cc(C)cc(NCC(=O)Nc2c(C)cccc2C)c1,32,-6
COc1ccccc1-c1cc(-c2ccccc2)nc(SC(C(N)=O)c2ccccc2)c1C#N (stereo not given),166,-18
Fc1ccc2c(c1)C1C=CCC1C(c1cc3c(cc1Br)OCO3)N2 (stereo not given),32,1
O=C(Nc1ccccc1)N1CCCCC1c1cccnc1 (stereo not given),40,-6
Cc1ccc2nc3sc(C(=O)N4CCCc5ccccc54)c(N)c3cc2c1,47,-2
CCCOc1ccc(-c2nc(C#N)c(NCCCn3ccnc3)o2)cc1,113,-28
CCOc1ccccc1N(CC(=O)Nc1ccc2c(c1)OCO2)S(C)(=O)=O,172,-14
C/C=C/C=C/C(=O)N1CC[C@]23c4ccccc4N[C@H]4N(C)c5cccc6c5[C@]42CCN([C@H]6C2OC2(C)C)[C@H]13 (stereo not given in full),66,-3
O=C(/C(=C/O)N=Nc1ccccc1)c1ccncc1,34,3
O=C(Nc1ccc2c(c1)OCCO2)c1ccncc1,64,3
CCCc1cc(=O)n2c([nH]c3ccccc32)c1C#N,39*,48*
CCOC(=O)C1CCN(C(=O)CN(c2cc(OC)ccc2OC)S(=O)(=O)c2ccccc2)CC1,94,2
Cc1ccc(-n2ncc3c(N4CCCC(C)C4)ncnc32)c(C)c1 (stereo not given),61,-14
COc1ccc(-c2cc(C(F)(F)F)c(C#N)c(SCC(=O)Nc3nc(C)co3)n2)cc1,+,·
ONC(=Nc1ccc(Cl)cc1)c1ccccc1Cl,89,-7
CCCOc1ccc(C(=O)N2CCCC2C(=O)O)cc1 (stereo not given),54,-5

# Taken from above:
# RmlC RmlD mix retest with `CC(=O)Nc1ccc(S(=O)(=O)N2CCN(C(=O)c3ccccc3F)CC2)cc1` = -10
# RmlC RmlD mix retest with `CCCCn1cnc2c1c(=O)[nH]c(=O)n2CCCC` = -4

# New compounds follow.
SMILES,RmlC RmlD mix,RmlC RmlD mix retest
O=C(c1ccccc1Oc1ccccc1)N1CCN(c2ccc(F)cc2)CC1,43,-7
Cc1ccc(CCNC(=O)C2CCCN(C(=O)c3cc4sccc4n3C)C2)cc1 (stereo not given),83,-4
CCCCOCC1CN(c2ccccc2)C(=O)CS1 (stereo not given),55,-3
Cc1ccc(NC(=O)c2c(C)noc2C)cc1,57,-10
CCOC(=O)c1c(-c2ccccc2)csc1NC(=O)c1nn(CC)cc1Br,131,-84
CCOC(=O)Cn1nnnc1C(CC)N(Cc1cc2ccc(C)cc2[nH]c1=O)C1CCCC1 (stereo not given),131,-8
COc1ccc(OC)c(-c2nnc(-c3ccc(C)o3)o2)c1,34,25
Cc1c(C)c2cc(Cl)c(O)c(CN3CCCC(C)C3)c2oc1=O (stereo not given),112*,139*
C=CCn1c(SCC(=O)Nc2sccc2C(N)=O)nc2ccc(Cl)cc2c1=O,32,21
CN(C(=O)C1CCCO1)c1nnc(-c2ccccn2)s1 (stereo not given),162*,·
CC(NC(=O)Cn1ccsc1=N)C12CC3CC(CC(C3)C1)C2 (stereo not given),40,-8
CCC(C)(C(=O)NC1CCCC1)N(C(=O)c1cnccn1)c1c(C)n(C)n(-c2ccccc2)c1=O (stereo not given),72,-6
O=C(CSc1nnc(NC(=O)C2CCC2)s1)Nc1ccc(N2CCOCC2)cc1,30,-2
Cc1ccccc1SCC(=O)NC1CCOC1=O (stereo not given),43,-2
Cc1cc(OCc2cc(C(=O)O)oc2C)c2c3c(c(=O)oc2c1)CCCC3,64,23
Cc1ccc2nc(-c3ccc(NC(=S)NCCC(C)C)cc3)sc2c1,130*,·
O=C(c1cc2c(s1)-c1ccccc1OC2)N1CCCC1,50,4
COc1ccc(N2C(=O)CC(Sc3ncccc3C(=O)O)C2=O)cc1 (stereo not given),38,4
CCCNC(=O)Cn1cnc2sc(C(=O)Nc3cc(OC)c(OC)c(OC)c3)c(C)c2c1=O,46,-8
N#Cc1c(C(F)(F)F)cc(-c2cccc(Cl)c2)[nH]c1=O,100,-136
Cc1cccc(-c2c3c(=O)n(C)c(=O)n(C)c3cn2C2CCCCC2)c1,37,-9
CN(CCO)c1nc(N)c2c(N)nc3c(c2c1C#N)CC(=O)N3C1CCCC1,30*,40*
NC(=O)c1ccc(-c2ncc(-c3ccccc3)o2)cc1,73*,120*
CCOC(=O)N1CCN(C(=O)CSc2nnc(COc3ccc(Cl)cc3)o2)CC1,82,2

# One compound at a time, from the list above. Order of screens: RmlC RmlD mix | RmlC RmlD mix retest
# `CN(C(=O)C1CCCO1)c1nnc(-c2ccccn2)s1` (stereo not given) is listed with 162* | ·
# `CCCCOCC1CN(c2ccccc2)C(=O)CS1` (stereo not given) is listed with 55 | -3
# `Cc1c(C)c2cc(Cl)c(O)c(CN3CCCC(C)C3)c2oc1=O` (stereo not given) is listed with 112* | 139*
# `CC(NC(=O)Cn1ccsc1=N)C12CC3CC(CC(C3)C1)C2` (stereo not given) is listed with 40 | -8
# `Cc1cc(OCc2cc(C(=O)O)oc2C)c2c3c(c(=O)oc2c1)CCCC3` is listed with 64 | 23

# 3 entries from above, ordered by length of the SMILES, ascending:
SMILES,RmlC RmlD mix,RmlC RmlD mix retest
COc1ccc(N2C(=O)CC(Sc3ncccc3C(=O)O)C2=O)cc1 (stereo not given),38,4
CCOC(=O)c1c(-c2ccccc2)csc1NC(=O)c1nn(CC)cc1Br,131,-84
CN(CCO)c1nc(N)c2c(N)nc3c(c2c1C#N)CC(=O)N3C1CCCC1,30*,40*

# A portion of the library; rates above refer to the full screens.
